Bioassay records from PubChem BioAssay.
FGF22 binding: binders of human FGF22 protein, primary screen, FGF22 synaptogenesis inhibitor project, biophysical, thermal shift, single point; calls only at 9.99 µM; 340,000 compounds, 1.5% hits; recombinant FGF22 thermal shift, SYPRO orange fluorescence; percent of sucrose octasulfate shift, DMSO zero;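 active means melting point raised past a set limit in the mean and every replicate; inconclusive means no clear call; three in four hits are not shown here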
Target sequence (Q9HCT0 whole entry, looked up): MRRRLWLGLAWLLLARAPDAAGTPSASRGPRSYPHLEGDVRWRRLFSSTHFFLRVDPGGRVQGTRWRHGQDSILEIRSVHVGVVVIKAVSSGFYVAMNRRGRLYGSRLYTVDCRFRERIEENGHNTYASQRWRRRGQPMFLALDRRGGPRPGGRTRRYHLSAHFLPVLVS
E coli growth: E. coli growth inhibition, primary screen, OD600 | Escherichia coli growth, 23 h; stronger effect = lower value | OD600 absorbance (test concentration not listed) | 330,000 compounds, 0.21% hits | AID 1053175, 2014;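 active means OD600 absorbance below the run mean of sample wells minus 3.6 SD, in any replicate, cut at about 0.56 in these data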;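 further: stock transfer was 300 nL into about 60 µL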
HNF4A DNA FP: change in binding of human HNF4A to DNA, primary screen, biochemical, fluorescence polarization, FITC-DNA. 1 h. 360,000 compounds, 0.3% hits. activity change, % at 10 µM; in the data active means activity change above about 30%, passing the limit was not always enough;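 further: controls were the assay level and a saturating level of protein; the project sought stronger binding though the title names inhibitors; some compounds called inactive have numbers as strong as hits; positive values seem to mean higher polarization but the record does not say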
Target sequence (P41235 whole entry, looked up): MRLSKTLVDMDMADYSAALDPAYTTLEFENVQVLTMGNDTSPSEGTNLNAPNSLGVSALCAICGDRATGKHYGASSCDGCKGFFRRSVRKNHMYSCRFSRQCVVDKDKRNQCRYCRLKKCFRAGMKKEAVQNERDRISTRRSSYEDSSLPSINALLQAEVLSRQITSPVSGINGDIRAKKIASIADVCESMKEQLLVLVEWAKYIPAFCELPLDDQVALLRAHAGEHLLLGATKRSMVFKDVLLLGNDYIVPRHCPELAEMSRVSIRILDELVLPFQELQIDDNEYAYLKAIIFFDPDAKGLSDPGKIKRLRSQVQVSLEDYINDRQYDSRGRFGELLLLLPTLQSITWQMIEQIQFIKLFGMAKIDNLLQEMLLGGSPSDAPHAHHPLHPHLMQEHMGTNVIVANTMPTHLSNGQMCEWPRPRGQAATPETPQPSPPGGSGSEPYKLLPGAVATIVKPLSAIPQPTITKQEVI
RanGTP-Impb inh: inhibitors of RanGTP-importin-beta interaction, primary screen, biochemical, FRET, CFP-Ran, YFP-importin-beta, homogeneous. 300,000 compounds, 1.1% hits. Ran GTPase (GTP-bound) - importin-beta complex. cell-free CFP-Ran/YFP-importin-beta FRET ratio. inhibition, % (no concentration beside the values). AID 2216, 2009;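 active means most replicates above 15%; inconclusive means exactly half above 15%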;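 further: 0% = DMSO wells and 100% = Ran loaded with GDP instead of GTP; wells of about 40 µL received 100 nL stock; the first replicate is given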
AF4-AF9 inh: inhibitors of AF4 peptide binding to AF9, primary screen, biochemical, AlphaScreen, biotin-AF4 peptide, FLAG-AF9, single point; Protein AF-9 (Homo sapiens), P42568; inhibition, % at 10 µM; 350,000 compounds, 0.47% hits; AID 651704, 2012;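 active means every replicate reaching a set inhibition limit, whatever the replicate mean, cut at about 25% in these data; inconclusive means mean inhibition reaches that limit but some replicates miss it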;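 further: 0% = plate neutral control median and 100% = total signal loss; the record names both 10 and 1 µM as test concentration; the first replicate is given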
UCH37 DUB inh: inhibitors of human UCH37 deubiquitinase, primary screen, biochemical, Ub-AMC cleavage, fluorescence; AID 588478, 2011; Ubiquitin carboxyl-terminal hydrolase isozyme L5 (Homo sapiens), Q9Y5K5; inhibition, % (test concentration not listed); 330,000 compounds, 0.33% hits; purified proteasome/UCH37;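 active means mean of two replicates above 20%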;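 further: 0% = compound-free wells with enzyme and 100% = wells lacking proteasome; stock transfer was 100 nL into about 20 µL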
Target sequence (Q9Y5K5 whole entry, looked up): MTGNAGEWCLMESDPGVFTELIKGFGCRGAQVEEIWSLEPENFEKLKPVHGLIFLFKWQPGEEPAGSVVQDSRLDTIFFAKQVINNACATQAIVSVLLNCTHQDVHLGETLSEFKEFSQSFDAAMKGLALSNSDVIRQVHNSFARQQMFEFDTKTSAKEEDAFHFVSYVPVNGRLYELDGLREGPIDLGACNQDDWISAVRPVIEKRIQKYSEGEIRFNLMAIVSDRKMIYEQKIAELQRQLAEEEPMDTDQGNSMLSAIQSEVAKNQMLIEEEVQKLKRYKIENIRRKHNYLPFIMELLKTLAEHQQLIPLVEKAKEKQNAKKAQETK
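Material: Human UCH37 enzyme supplied as purified proteasome complex | Schedule: 30 min preincubation with enzyme, 25 min cleavage at room temperature | Detection: AMC fluorescence 355/460 nm | Measure: % inhibition of Ub-AMC cleavage fluorescence | Controls: Wells without proteasome as full block, compound-free enzyme plus substrate as uninhibited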
Vif TR-FRET: inhibitors of Vif binding to APOBEC3G peptide, primary screen, biochemical, TR-FRET, GST-Vif 1-94, biotin-A3G peptide, dose response retest (AID 1117319); 260,000 compounds, 0.57% hits; Virion infectivity factor (Human immunodeficiency virus type 1 group M subtype B (isolate …; TR-FRET GST-Vif / biotin-A3G peptide binding; higher % means a stronger effect; test concentration not given here; strong numbers were not always called active; inhibition, %; hits with a dose series show IC50 in µM;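 active means above the screen mean plus three standard deviations and confirmed in dose response; inconclusive means results disagree or hit not tested in dose response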;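 further: Vif residues 1-94 fused to GST binding biotinylated APOBEC3G peptide 110-148; 0% = full assay without inhibitor and 100% = GST in place of GST-Vif; retest series ran down from 100 µM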
Active calls of the source: *; i = inactive; u = inconclusive; x = no result given; & = joins results of further samples.

SMILES	FGF22 binding	E coli growth	HNF4A DNA FP	RanGTP-Impb inh	AF4-AF9 inh	UCH37 DUB inh	Vif TR-FRET
COc1ccc(CN2C(=O)C(CC(C)C)Nc3ncnc(N4CCN(c5ccccn5)CC4)c32)cc1 (stereo not drawn)	i	0.71	2.2	1.7	11	5.6	x
CCOCCOC(=O)c1ccc(NC(=O)c2cc3ccccc3o2)cc1	i	x	0.9	x	2.9	x	x
COc1ccc(OCC(=O)Sc2ccc(C)cc2)cc1	x	0.75	-1.0	0.0	x	6.8	-1%
Cc1nn(C(=O)c2cccs2)c(N)c1-c1ccccc1	i	0.74	2.7	2.9	3.5	1.1	-1%
c1ccc(-n2ncc3c(NCc4cccnc4)ncnc32)cc1	x	0.72	0.1	-1.2	x	-2.8	1%
O=C(CN(Cc1ccccc1F)C(=O)Cn1nnc(-c2cccs2)n1)NCC1CCCO1 (stereo not drawn)	i	0.67	3.3	4.7	-0.4	0.5	2%&-2%
O=C(CC(CC(=O)c1ccccc1)c1ccncc1)c1ccccc1	i	0.73	4.1	x	-1.7	1.7	-6%
O=S(=O)(Nc1ccc(Cl)cn1)c1ccc(Cl)cc1	i	0.68	-3.3	-0.2	-4.8	-2.4	21%
Cc1cccc(C)c1OCc1cc(C(=O)N2CCN(c3ccccc3)CC2C)no1 (stereo not drawn)	i	0.71	7.3	-0.9	0.7	2.4	-4%
COC(=O)c1ccc(-c2ccc(/C=N/NC(=O)Cc3nnc(N)s3)o2)cc1	i	x	3.2	3.0	x	x	x
O=C(COC(=O)c1ccc[nH]c1=O)NC1CCCCC1	i	0.69	-3.8	1.6	1.4	2.0	x
Cc1cc(C)cc(NC(=O)c2c(C)nc3ccccn23)c1	i	0.68	1.8	-3.0	-1.7	0.4	5%
COc1ccc(N(CC(=O)Nc2cccc([N+](=O)[O-])c2C)S(C)(=O)=O)cc1OC	x	0.67	2.9	-1.9	x	1.1	5%
Cc1cc(C(=O)OCC(=O)NCCN2C(=O)CSC2=O)ccc1[N+](=O)[O-]	i	0.72	-3.4	x	1.1	2.2	x
CCC(C)N(C(=O)COC(=O)COc1c(C)cc(C)cc1C)C1CCS(=O)(=O)C1 (stereo not drawn)	i	0.68	2.7	-3.3	-0.5	0.9	-5%
CC(C)Cc1cc(C(=O)N2CCCC(C(=O)c3cc(F)ccc3F)C2)n(C)n1 (stereo not drawn)	i	0.69	-1.1	0.7	-1.9	3.7	x
COc1ccc2nc(NC(=O)NC3CCCCC3)sc2c1	i	0.66	2.3	-3.4	-28	2.0	20%
CCOC(=O)c1cc(C#N)c(Oc2ccccc2)nc1-c1ccccc1	x	0.76	2.6	1.6	x	2.7	1%
CCOc1ccc(N2CC(NS(=O)(=O)c3cccs3)CC2=O)cc1 (stereo not drawn)	x	0.65	-0.1	2.4	0.7	4.4	-12%
COc1ccc(CNC(=O)C2CCC(=O)N(CCCN3CCCC3=O)C2)cc1 (stereo not drawn)	i	0.71	-2.1	-1.6	1.4	6.3	-5%
OC(COc1ccc2ccccc2c1)Cn1ccnc1 (stereo not drawn)	x	0.61	5.7	-1.1	x	-3.0	2%
C[C@@H]1[C@H](O)C[C@@]23COC(=O)C2=CCC[C@@H]3[C@@]1(C)CC/C(=C/CO)CO	i	0.7	-2.5	x	-0.5	2.5	x
CCOc1ccccc1C(=O)Nc1ccc(S(=O)(=O)N2CCN(C)CC2)cc1	i	0.68	-0.3	-0.4	3.9	5.3	x
COc1ccccc1N1CCN(CCCCN2C(=O)c3ccccc3C2=O)CC1	i	0.66	-4.3	3.0	0.4	3.1	x
CC(=O)N1CCC2(CC1)C/C(=N\NC(=S)Nc1ccccc1C)c1cc(O)ccc1O2	i	x	-3.1	u	13	x	22%
CCc1cccc(CC)c1NC(=O)C(CC)Sc1nc2ccsc2c(=O)n1CCC(=O)O (stereo not drawn)	i	x	-0.3	x	0.3	x	-3%
Cc1c(-c2ccccc2)nc2ccccc2c1C(=O)O	i	0.7	1.1	2.0	-11	2.6	68%
CC(C)c1ccc(N=C2NN=C(c3cccs3)CS2)cc1	i	0.72	27	0.6	5.8	1.6	7%
O=C(NC12CC3CC(CC(C3)C1)C2)N(Cc1ccccc1)Cc1ccncc1	i	0.71	0.5	0.7	0.9	3.5	-2%
COc1ccc2[nH]cc(CCNC(C)=O)c2c1	i	0.71	1.4	6.8	-1.1	0.9	x
N#CCCN(C(=O)COC(=O)c1ccc2c(=O)n3c(nc2c1)CCC3)c1ccc(F)cc1	i	0.73	3.4	1.2	-3.7	-13	-1%
Cc1cc(NC(=O)CC2CCCC2)n(-c2nc3ccccc3[nH]2)n1	x	0.71	0.2	5.9	x	-0.1	-5%
CCOC(=O)c1c(N)sc(C(=O)Nc2ccc3c(c2)OCO3)c1C	x	0.74	4.9	4.5	x	2.2	13%
Clc1nnc(N/N=C/c2ccccc2)c2ccccc12	x	x	0.9	-2.5	x	x	-1%
NC(=O)N/N=C/c1sc(N2CCCCC2)nc1-c1cccs1	i	x	21	1.3	30*	x	x
CCOC(=O)Cn1c(=O)n(Cc2ccc(C)cc2)c(=O)c2cccnc21	i	0.64	0.3	-0.7	-1.3	1.8	-5%
COc1ccc(CCN2C(=O)CC(NNc3ccc([N+](=O)[O-])cc3)C2=O)cc1OC (stereo not drawn)	i	0.72	-3.8	11	-3.8	8.1	12%
CCN(CC)CCN(C(=O)c1ccc2c(c1)CCCC2)c1nc2ccc(OC)cc2s1	i	0.68	-2.9	-3.6	7.2	2.6	x
CCc1cccc(NC(=O)COC(=O)c2cc(=O)c3ccccc3o2)c1	i	0.69	-0.8	x	-3.8	1.3	-5%
CN(C)C1=NCCN1CCc1cccc(F)c1	i	0.69	-1.1	-1.6	-1.2	3.2	x
CC(C)Cc1oc(C(=O)O)cc1CN1CCOCC1	i	0.66	2.2	-1.5	0.7	-1.4	4%
Cc1cc(N)ccc1N1CCCC1	x	x	12	1.1	x	x	29%
CCOC(=O)SC1=N/C(=C\c2ccc(N(C)C)cc2)C(=O)S1	i	0.7	79*	9.1	5.0	3.0	9%
NS(=O)(=O)c1ccc(S(=O)(=O)N(Cc2ccccc2F)CC2CCCO2)cc1 (stereo not drawn)	x	0.68	-2.7	-1.5	x	2.3	3%
CC(C(=O)N1CCCC1)N(C)CC(=O)Nc1cccc(F)c1 (stereo not drawn)	i	0.72	-2.3	x	1.6	0.4	-6%
C=CCC1(CC=C)CCCN1C(=O)C1CCC(=O)N(Cc2ccc(Cl)cc2)C1 (stereo not drawn)	i	x	-1.6	x	1.5	x	-2%
Cc1ccc(N(C(=O)c2csnn2)C(C(=O)NC2CCCCC2)c2ccccn2)cc1 (stereo not drawn)	i	0.66	-0.4	-4.2	-1.7	4.6	x
COc1cc2c(cc1OC)CN(C(=O)c1cccc(S(=O)(=O)N3CCc4ccccc43)c1)CC2	i	0.71	-1.5	x	3.5	-0.3	9%
O=S(=O)(CCNCc1ccco1)NCc1ccccc1	i	x	-4.2	x	-1.2	x	x
CC(C)OC(=O)Cn1nc(C(c2ccccc2)c2ccccc2)oc1=O	i	0.68	-3.2	1.0	-0.9	2.6	3%
COc1ccc(S(=O)(=O)N2CCCCCC2)cc1C(=O)N(C)Cc1ccccc1F	x	0.7	-1.8	-4.4	0.2	-0.1	10%
Cc1ccc(S(=O)(=O)N(C)C2(C)CCS(=O)(=O)C2)cc1 (stereo not drawn)	x	0.7	-1.2	-3.4	x	3.3	4%
Cn1c(-c2sc3cc(C(F)(F)F)cnc3c2-c2cccnc2)n[nH]c1=S	x	0.77	0.1	1.0	x	1.0	-2%
CCS(=O)(=O)/N=C(\N)c1ccccc1	x	x	-2.4	-1.7	-15	x	-2%
COCCn1c(=S)[nH]c2cc(C(=O)NCCCN3CCOCC3)ccc2c1=O	i	0.72	3.6	u	-1.4	4.9	31%
CC(C)c1ccc(S(=O)(=O)Nc2ccc(N3CCOCC3)cc2)cc1	i	0.65	1.2	-4.2	4.6	-2.1	x
O=C(COC(=O)/C=C/c1cccs1)NC(c1ccccc1)c1ccccc1	x	0.7	2.2	0.3	x	-1.0	x
CN(C)S(=O)(=O)c1ccc(NC(=O)COc2cccc3c2OC(C)(C)C3)cc1	i	0.68	-1.8	x	1.8	4.8	3%
O=S1(=O)CCOC[C@H](Cc2ccccc2)N1Cc1cccc(C(F)(F)F)c1	i	x	0.2	1.5	-5.5	0.3	x
Cn1c(=N)n(CC(=O)c2ccc(Br)s2)c2ccccc21	x	0.65	-3.2	4.1	x	2.8	1%

No new results follow: an excerpt of the list.
SMILES	FGF22 binding	E coli growth	HNF4A DNA FP	RanGTP-Impb inh	AF4-AF9 inh	UCH37 DUB inh	Vif TR-FRET
O=S(=O)(CCNCc1ccco1)NCc1ccccc1	i	x	-4.2	x	-1.2	x	x
CC(C)OC(=O)Cn1nc(C(c2ccccc2)c2ccccc2)oc1=O	i	0.68	-3.2	1.0	-0.9	2.6	3%
COc1ccc(S(=O)(=O)N2CCCCCC2)cc1C(=O)N(C)Cc1ccccc1F	x	0.7	-1.8	-4.4	0.2	-0.1	10%
Cc1ccc(S(=O)(=O)N(C)C2(C)CCS(=O)(=O)C2)cc1 (stereo not drawn)	x	0.7	-1.2	-3.4	x	3.3	4%

Additional results follow:
SMILES	FGF22 binding	E coli growth	HNF4A DNA FP	RanGTP-Impb inh	AF4-AF9 inh	UCH37 DUB inh	Vif TR-FRET
Cn1c(=O)c2c(ncn2CC(=O)Nc2ccc3c(c2)OCO3)n(C)c1=O	i	0.71	-4.3	5.2	0.1	5.3	x
COCc1cc(C)n(CC(=O)NCc2ccccc2)c(=O)c1C#N	x	x	-2.5	-2.5	-1.2	x	x
CNC(=O)Nc1cccc(-c2cc(-c3c(Cl)cccc3Cl)no2)c1	i	0.66	4.1	-0.9	-1.4	2.6	0%
CNC(=S)N1N=C(c2ccccc2)CC1c1ccc(Br)cc1 (stereo not drawn)	x	0.74	4.8	-2.7	x	3.6	-11%
CC1=NN(C(N)=S)C(=O)C1N=Nc1ccccc1C (stereo not drawn)	x	0.72	0.8	2.0	x	4.6	12%
O=C(Nc1cccc(-c2cn3ccccc3n2)c1)c1cccc(Cl)c1	x	0.83	0.4	3.5	x	-11	-6%
COc1ccc(S(=O)(=O)/N=C2/NC(=O)/C(=C\c3ccco3)S2)cc1	x	0.71	1.2	4.8	x	11	u
Cc1nn(C(=O)c2cc3sccc3[nH]2)c(C)c1C	i	0.7	3.3	1.8	3.0	-11	-3%
CCOC(=O)c1cnc2c(C)cc(Cl)cc2c1N1CCN(C)CC1	i	0.67	-0.7	4.2	6.0	8.3	-4%
COc1ccc(C(=O)Nn2cc3c(c2-c2ccccc2)c(=O)n(C)c(=O)n3C)cc1	x	0.74	0.7	-4.3	x	1.7	5%
CCCCn1c(N)c(N(CC(C)C)C(=O)C2CCN(c3ncnc4sc(C)c(C)c34)CC2)c(=O)[nH]c1=O	i	0.62	-1.0	-0.3	10	1.9	6%
O=C(COC(=O)CCc1c[nH]c2ccccc12)Nc1ccccc1C(F)(F)F	i	0.66	-0.7	x	1.7	0.4	x
COc1ccc2c(c1)C(=NN)c1cc(OC)ccc1-2	x	0.65	-0.6	-0.2	x	4.2	1%
O=C(O)c1sc2cc(C(F)(F)F)cnc2c1-c1ccccc1	x	0.65	-5.9	5.6	x	2.0	-1%

The list is partial (hit frequency here may not be typical).
